Screens (PubChem)
miR-21 reporter = qHTS Assay for Modulators of miRNAs and/orActivators of miR-21; AID 2288, 2010; HeLa miR-21 FLuc reporter, luciferase, 48 h; 340,000 tested, under 10 active; Potency, µM (top dose mostly 38.3 µM), for inactives: top-dose reporter change, positive = more light; active = well fitted rising curve with a large enough effect; inconclusive = small, poorly fitted or top-dose-only effect; inactive = no such curve, though single readings can be large or run the other way;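 also: % of control where 0% means no effect; miR-21 action dims this reporter so a rising signal means less miR-21 action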
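Using DMEM plus 10% FBS, HeLa miR-21-FLuc cells are incubated with test compounds (final up to about 40uM) for 48 hours; firefly luciferase signal is then imaged following reagent-mediated lysis.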
Rango release inh = qHTS Assay for Inhibitors of RanGTP induced Rango (Ran-regulated importin-beta cargo) - Importin beta complex dissociation | Snurportin-1 (Homo sapiens) + GTP-binding nuclear protein Ran (Homo sapiens) + Importin … | Biochemical FRET Rango-importin beta, RanGTP-induced dissociation | Potency, µM (top dose mostly 46.1 µM), for the others: top-dose activity change, negative = inhibition | 340,000 tested, 0.071% active; active means falling FRET ratio curve, often poorly fitted, with flat reads before Ran was added; inconclusive means other falling curves, or compound fluorescence or quenching; inactive means flat or rising ratio curve;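 also: potency is read from the fitted curve at half-maximal effect; % of control where 0% means no effect; nearly all actives have a fitted effect of over 45% in size; -100% = wells without RanGTP and RCC1; the record marks most hits as doubtful in a second field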
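FRET read at 45 min, room temperature: inhibitors block the CFP/YFP signal rise when RanGTP (0.6 uM Ran, 2 mM GTP, 0.2 uM RCC1) frees Rango (0.1 uM) from importin beta (0.25 uM). Pre-read after 5 min compound exposure flags interference.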
GLA inh pH 4.5 = qHTS Assay for Inhibitors of Human alpha-Galactosidase at pH 4.5. Alpha-galactosidase A (Homo sapiens), P06280. purified enzyme, 4-MU-alpha-Gal fluorescence, pH 4.5. activity change, negative = inhibition, % at 105 µM. 230,000 tested, under 10 active; inconclusive = small, poorly fitted or top-dose-only inhibition, or a rising curve; inactive = flat fitted curve, though single readings scatter; no compound was filed as active;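 also: 0% = full activity with enzyme and -100% = basal without enzyme; dose as in the result columns while the protocol names 77 µM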
Target sequence (P06280 whole entry, looked up): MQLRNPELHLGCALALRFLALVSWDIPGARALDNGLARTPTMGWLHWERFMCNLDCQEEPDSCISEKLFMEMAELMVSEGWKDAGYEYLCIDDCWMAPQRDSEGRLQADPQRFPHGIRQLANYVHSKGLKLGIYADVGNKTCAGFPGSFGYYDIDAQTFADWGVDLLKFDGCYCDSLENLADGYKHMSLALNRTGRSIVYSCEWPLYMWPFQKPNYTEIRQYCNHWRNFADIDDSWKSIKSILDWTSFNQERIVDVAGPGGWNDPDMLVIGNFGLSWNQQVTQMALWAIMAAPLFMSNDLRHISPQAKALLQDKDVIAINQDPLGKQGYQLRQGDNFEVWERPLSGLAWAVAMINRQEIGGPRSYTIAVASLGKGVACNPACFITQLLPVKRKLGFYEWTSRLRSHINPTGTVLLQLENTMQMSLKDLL
Rango complex inh = qHTS Assay for Inhibitors of Rango (Ran-regulated importin-beta cargo) - Importin beta complex formation; AID 540263, 2011; Rango CFP/YFP FRET sensor + importin beta, 45 min; 340,000 tested, 0.031% active; Potency, µM (series often up to 92.2 µM), for inactives: at the top dose inhibition of complex formation; Importin subunit beta-1 (Homo sapiens), Q14974; active = rising FRET ratio curve, often small or poorly fitted; inconclusive = mostly compound fluorescence or quenching in the first reads; inactive = flat curves in all reads;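 also: potency is read from the fitted curve at half-maximal effect; 0% = DMSO wells and 100% = buffer wells lacking importin beta; nearly all actives have a fitted effect of over 15% in size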
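FRET biosensor Rango (snurportin 1 IBB between N-terminal EYFP and C-terminal Cerulean), 50 nM in PBS/1 mM DTT/0.02% Tween-20/0.1% BSA, preincubated 5 min RT with compound; 0.125 microM importin beta added, 45 min RT, CFP/YFP FRET ratio read.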
Active calls of the source: *; ? = inconclusive; / = no result given; & = joins results of further samples; [ ] = another dose, or the depositor's remark.

1	COc1ccc(C(CNC(=O)c2cc3ccccc3cc2O)N2CCOCC2)cc1 (stereo not drawn)
2	CC(=O)N(C(C)=O)c1c(N2CCOCC2)c2ccccc2oc1=O
3	CCc1ccc(NC(=O)CCCNC(=O)Cn2cnc3sc(C)c(C)c3c2=O)cc1
4	O=C(COC(=O)c1ccccc1Br)NC(=O)NCc1ccccc1
5	N=c1n(CCc2ccccc2)c2ccccc2n1Cc1ccccc1F
6	O=C(NC(N1CCOCC1)C(Cl)(Cl)Cl)c1ccc(F)cc1 (stereo not drawn)
7	Cc1cc(C)c(C(=O)C(C)OC(=O)c2ccccn2)cc1C (stereo not drawn)
8	O=C(NCCSCc1ccco1)Nc1ccccc1
entry no.	1	2	3	4	5	6	7	8
miR-21 reporter	/	-6.2%	6.1%	/	?	-2.4%	0.8%	-29.8%
Rango release inh	?	-6.2%	0.4%	2.3%	3.7%	-5.1%	13.6%	2.9%
GLA inh pH 4.5	/	-7.1	/	/	-2.5	4.2	/	-5.3
Rango complex inh	?	1.1%	0.4%	2.3%	-5.0%	2.8%	2.6%	10.7%

9	COc1ccc(N(CC(=O)N2CCc3ccccc32)S(=O)(=O)c2c(C)nn(C)c2C)cc1
10	Cc1ccc(S(=O)(=O)Nc2nc(C)cc(NCCN)n2)cc1
11	CCOc1cc(/C=N/n2cnnc2)ccc1O
12	c1ccc(-n2cnc3ccccc32)cc1
13	COc1ccccc1C(=O)NCC(=O)n1nc(C)cc1C
14	CCCN(CC(=O)Nc1ccccc1OC)C(=O)c1cc2ccccc2o1
15	N#Cc1ccc(OCC(=O)OCC(=O)c2ccc[nH]2)cc1
16	CCc1nc2c(c(=O)[nH]1)C(CC)(CC)Cc1ccccc1-2
entry no.	9	10	11	12	13	14	15	16
miR-21 reporter	-1.6%	-1.0%	2.1%	-15.1%	-0.1%	-3.9%	/	-2.3%
Rango release inh	14.0%	-1.9%	-6.2%	17.4%	3.6%	8.7%	14.2%	7.8%
GLA inh pH 4.5	-24.9	-0.6	-10.6	-17.6[21.1 µM]	-4.1	11.5	/	/
Rango complex inh	-2.2%	5.6%	0.4%	1.2%	0.4%	1.6%	-0.4%	3.2%

Compound profiles, as listed above. Screens in order: miR-21 reporter, Rango release inh, GLA inh pH 4.5, Rango complex inh
CCOc1cc(/C=N/n2cnnc2)ccc1O as listed: 2.1%, -6.2%, -10.6, 0.4%
COc1ccc(N(CC(=O)N2CCc3ccccc32)S(=O)(=O)c2c(C)nn(C)c2C)cc1 as listed: -1.6%, 14.0%, -24.9, -2.2%
Cc1ccc(S(=O)(=O)Nc2nc(C)cc(NCCN)n2)cc1 as listed: -1.0%, -1.9%, -0.6, 5.6%
N#Cc1ccc(OCC(=O)OCC(=O)c2ccc[nH]2)cc1 as listed: /, 14.2%, /, -0.4%

Following part:
17	COc1cccc(C(=O)c2c[nH]c(C(=O)NCCCN3CCOCC3)c2)c1
18	O=C(CSc1ncnc2c1oc1ccccc12)N1CCN(c2ccccc2)CC1
19	Cc1cc(C)c(C#N)c(SCCS(=O)(=O)c2ccc(Cl)cc2)n1
20	CC(=O)OC1CC2(C)C(=O)CCC2C2CCc3cc(O)ccc3C12 (stereo not drawn)
21	C=CC[C@@H](CC(=O)N[C@@H](CO)Cc1ccccc1)C(=O)N[C@H](C)COC(=O)[C@@H](CC=C)Cc1ccc(F)cc1
22	Cn1c(-c2ccc(Br)cc2)cnc1NCc1ccc(C#N)cc1
23	COCCn1cnc2c1c(=O)n(CC(=O)O)c(=O)n2Cc1ccccc1
24	CCCCOc1ccc(C(=O)NCc2ccccn2)cc1
entry no.	17	18	19	20	21	22	23	24
miR-21 reporter	0.3%	/	7.7%	-4.7%	/	8.6%	0.0%	-37.0%
Rango release inh	-2.6%	0.1%	-22.1%	0.0%	2.3%	0.6%	-13.0%	-3.6%
GLA inh pH 4.5	-0.6	/	1.1	-1.0	/	/	/	2.3
Rango complex inh	0.6%	0.7%	-4.6%	-2.9%	-0.2%	?	2.4%	-0.9%

25	Cc1cccnc1NC(=O)c1ccccc1-c1ccccc1C(=O)Nc1ncccc1C
26	COc1ccc(OC)c(C2CC(=O)N3CN(c4ccccc4)CSC3=C2C#N)c1 (stereo not drawn)
27	COc1ccccc1CN1CC(C(=O)N2CCCCO2)CCC1=O (stereo not drawn)
28	CCOC(=O)C1=C(C)Nc2sc(C(=O)c3ccc(C)cc3)c(N)c2C1c1ccc(C(=O)OC)cc1 (stereo not drawn)
29	COc1ccc(NC(=O)c2ccc(CN3CCN(c4ccccc4)CC3)cc2)cc1OC
30	O=C(O)CCn1c(=O)oc2cc(S(=O)(=O)N3CCCC3)ccc21
31	CCN(CC)CCCNC(=O)c1cn(CCOC)c(=O)c2c1c1ccccc1n2C
32	O=C(CCNC(=O)C1CCN(S(=O)(=O)c2ccc(F)cc2)CC1)NCc1ccc(Cl)cc1
entry no.	25	26	27	28	29	30	31	32
miR-21 reporter	-4.2%	-2.3%	-50.5%	5.9%	7.8%	/	-4.0%	-1.2%
Rango release inh	-3.5%	-1.1%	-5.3%	?	-13.9%	-5.4%	23.5%	3.7%
GLA inh pH 4.5	1.5	-17.4	/	-14.4	-13.8	/	12.3	/
Rango complex inh	4.4%	?	-1.7%	?	5.7%	-1.4%	1.2%	0.0%

33	CCn1c(SCC(=O)Nc2nc(-c3ccc(C)cc3)cs2)nnc1-c1ccccc1
34	COC(=O)C1=C(C)N(C)C(C)=C(C(=O)OC)C1c1ccsc1
35	CC(C(Sc1ccccc1N)c1ccccc1)[N+](=O)[O-] (stereo not drawn)
36	Cc1ccccc1C(=O)Nc1ccnn1C1CCN(C(=O)c2cnsn2)CC1
37	CC(C)(C)OC(=O)NCCCC[C@H](NC(=O)[C@H](Cc1c[nH]c2ccccc12)NC(=O)OCc1ccccc1)C(=O)O
38	O=c1c2c3nc4ccccc4nc3n(-c3cccc(F)c3)c2ncn1Cc1ccc2c(c1)OCO2
39	Cc1ccc(NCN2C(=O)C3C4CCC(C4)C3C2=O)cc1 (stereo not drawn)
40	CCOc1ccc(NS(=O)(=O)c2cc(C(=O)NCCCN3CCOCC3)ccc2C)cc1
entry no.	33	34	35	36	37	38	39	40
miR-21 reporter	12.3%	-0.6%	-13.7%	-11.6%	0.3%	-7.5%	-1.9%	/
Rango release inh	-4.1%	9.1%	-8.5%	-3.8%	-19.3%	/	/	-12.3%
GLA inh pH 4.5	-2.6	-1.7	1.7	/	/	2.1	3.5	/
Rango complex inh	-2.1%	-1.0%	-1.6%	1.0%	2.4%	/	/	-1.0%

41	Cc1cccc(C)c1OCCOC(=O)c1n[nH]c2ccccc12
42	CCN(CCCNC(=O)CN(C)S(=O)(=O)c1cccc2nsnc12)c1cccc(C)c1
43	CC1(C)CC(NCc2ccncc2)CC(C)(C)N1
44	CC1CCC(=O)N(CCC#N)CC1 (stereo not drawn)
45	CCN(C(=O)c1cn(CC)c(=O)c2cc(OC)c(OC)cc12)c1ccccc1C
46	O=[N+]([O-])c1cc(S(=O)(=O)N2CCCC2)ccc1NN=C1CCCC1
47	N#C/C(=C\c1ccc(O)c(O)c1)C(=O)NCc1ccccc1
48	CN(C(=O)c1ccccc1)C1c2c(ccc3ccccc23)OCC1CO (stereo not drawn)
entry no.	41	42	43	44	45	46	47	48
miR-21 reporter	-0.5%	-3.1%	-0.4%	-0.4%	-17.3%	0.1%	/	-2.0%
Rango release inh	31.3%	0.5%	-16.2%	0.3%	-14.1%	15.3%	?	5.8%
GLA inh pH 4.5	-2.2	-4.2	4.6	/	-1.3	-16.4	-15.0&-7.7	/
Rango complex inh	-0.9%	-4.7%	0.8%	-3.9%	?	-0.7%	?	2.0%

49	O=C(CCn1c(=O)c2cccn2c2ccc(F)cc21)NCc1cccc(F)c1
50	O=C(Nc1nccs1)c1cccc(NC(=O)C2CC2)c1
51	O=C(NC(=S)N1CCc2ccccc21)C1CCC1
52	Cc1cc(NS(=O)(=O)c2ccc(NC(=O)C(C(C)C)N3C(=O)c4ccccc4C3=O)cc2)nc(C)n1 (stereo not drawn)
53	Cc1ccc2cc(CCNC(=O)CCCc3ccccc3)c(=O)[nH]c2c1
54	COc1ccc(NC(=O)CCS(=O)(=O)c2ccc3c(c2)NC(=O)C(C)S3)cc1OC (stereo not drawn)
55	CC(=O)NC(CC(=O)NNC(=O)c1cc2ccccc2cc1O)c1ccccc1 (stereo not drawn)
56	CCC(C)[C@H]1CN=C(N)N1CCCc1cc(OC)c(OC)c(OC)c1 (stereo partly drawn)
entry no.	49	50	51	52	53	54	55	56
miR-21 reporter	-12.2%	-7.2%	-11.0%	1.4%	-1.2%	6.5%	-5.5%	-3.1%
Rango release inh	-1.4%	0.7%	-19.1%	-8.8%	-10.0%	-14.9%	?	23.7%
GLA inh pH 4.5	/	-1.9	3.3	-30.0	/	/	/	3.4
Rango complex inh	5.4%	-4.1%	-1.1%	6.1%	-0.3%	-0.6%	?	3.2%

57	O=C(COc1ccc2ccccc2c1)Nc1ccc(Br)cc1C(=O)O
58	C/C(N)=C(/C#N)C(=O)CSc1nnc(-c2ccc(OC(F)F)cc2)o1
59	COc1ccc(C(=O)N[C@H](C(=O)NCCCSc2ccccc2)C(C)C)cc1
60	COc1ccc(NC2CC(=O)N(c3cc([N+](=O)[O-])ccc3C)C2=O)cc1 (stereo not drawn)
61	COc1ccc(NC(=O)CN(C)S(=O)(=O)c2cnc[nH]2)cc1OC
62	CCN(C[C@H]1N[C@@](Cc2ccccc2)(C(=O)OC)[C@H]2C(=O)N(C)C(=O)[C@@H]12)S(=O)(=O)c1ccc(OC(F)(F)F)cc1
63	Cc1noc(C)c1S(=O)(=O)N1CCC(C(=O)c2ccccc2)CC1
64	COc1nc(N2CCOCC2)nc(C)c1[N+](=O)[O-]
entry no.	57	58	59	60	61	62	63	64
miR-21 reporter	-0.3%	-59.2%	/	1.3%	1.3%	/	-1.4%	-2.2%
Rango release inh	-1.9%	-5.0%&9.3%	4.6%	6.2%	?	0.2%	12.3%	-2.8%
GLA inh pH 4.5	/	-8.8	/	-0.1	/	/	-0.6	-0.3
Rango complex inh	2.9%	?	0.9%	0.5%	1.7%	-0.7%	2.6%	0.2%

65	Nc1nc(N)nc(-c2cccc(Cl)c2Cl)n1
66	Nc1nonc1-n1nnc(C(=O)N/N=C/c2cccc(Cl)c2)c1CSc1ccc(Cl)cc1
67	O=C(COC(=O)Cc1ccc(F)cc1)NC(=O)c1ccccc1
68	O=C(c1ccco1)N1CCN(c2nc(C3CC3)nc3c2nnn3Cc2ccccc2Cl)CC1
69	COCCCN(C(=O)c1cc(Cl)nc2ccccc12)c1c(N)n(Cc2ccccc2)c(=O)[nH]c1=O
70	Cc1cccc(CSc2nc3ccncc3n2CC(=O)Nc2ccc(C)c(C)c2)c1
71	COc1ccc(C(=O)N=c2sc3ccccc3n2C)cc1OC
72	CCNc1ccc(C(=O)OCC)cc1NC(=O)c1cc(S(=O)(=O)N2CCOCC2)ccc1C
entry no.	65	66	67	68	69	70	71	72
miR-21 reporter	/	2.8%	/	5.8%	/	-22.2%	-59.7%	-1.7%
Rango release inh	3.0%	-3.3%	-23.1%	2.3%	36.3%	/	3.0%	-23.5%
GLA inh pH 4.5	/	3.7	/	-29.9	/	-18.1	-15.3	-13.6
Rango complex inh	0.1%	4.3%	-3.3%	2.1%	1.2%	/	3.7%	1.1%

A portion of the library, so the mix of outcomes need not match the whole.
